Vaccinia Venus: inhibitors of vaccinia virus (Venus reporter); 330,000 compounds, 0.46% hits; Vaccinia virus Venus reporter expression, fluorescence; Potency, µM (top dose mostly 36.5 µM), for the others: at the top dose activity change, negative = inhibition, usual class: inhibitors; active means well fitted inhibition curve with a large enough effect; inconclusive means small, poorly fitted or top-dose-only effect; inactive means no such curve, though single readings can be large or run the other way; tested in A549 cells; further: nearly all actives have a fitted effect of over 30% in size; inactives centre near -10
Vaccinia mCherry: inhibitors of vaccinia virus infection (mCherry reporter signal). Vaccinia virus mCherry reporter infection, fluorescence; about a quarter of the inactives have no number. Potency, µM (highest dose often 36.5 µM), for inactives: at the highest dose activity change, negative = inhibition, hits mostly inhibitors. 310,000 compounds, 0.63% hits. AID 720579; active = well fitted inhibition curve with a large enough effect; inconclusive = small, poorly fitted or top-dose-only effect; inactive = no such curve, though single readings can be large or run the other way; tested in A549 cells; further: nearly all actives have a fitted effect of over 35% in size; inactives centre near -10
The depositor's hits bear a star; i = inactive; ? = inconclusive; . = no result given; & = joins results of further samples; [ ] = another dose, or the depositor's remark. On the % scale 0 is the no-effect control and ±100 the full control effect; potency means the concentration at half of the fitted maximal effect.

structure	Vaccinia mCherry	Vaccinia Venus
Cc1ccccc1-c1cnc(C(O)c2cc(Cl)cc(Cl)c2)[nH]1 (configuration not stated)	i	-12%
O=[N+]([O-])c1ccccc1CN1CCN(Cc2ccccn2)CC1	-7%	3%
N#Cc1ccc(OCC(=O)NC2CCCCCC2)cc1	-10%	-8%
Cc1cc([N+](=O)[O-])cc2c1NC(c1ccccn1)C1CC=CC21 (configuration not stated)	-1%	3%
CCOC(=O)c1c(NC(=O)CSc2nnc(-c3cccnc3)n2Cc2ccco2)sc(C)c1C	i	-26%
COc1cccc(/C=N/NC(=O)CSc2nnc(C)n2-c2ccccc2)c1O	?	?
COc1cc(/C=C/CNC[C@H]2O[C@@H](n3cnc4c(=O)[nH]c(N)nc43)[C@H](O)[C@@H]2O)ccc1O	14%	9%
Cc1cccc(-c2noc(-c3cc(C(C)C)[nH]n3)n2)c1	-16%[7.34 µM]	-9%[7.34 µM]
O=C(CCS(=O)(=O)c1cccc2nonc12)NCc1ccc(Cl)cc1	-7%	-10%
Cc1ccnc(SCC(=O)Nc2cc(C)on2)n1	-18%	-13%
CCCCCCSc1ccc(-c2nc3ccc(Cl)cn3c2NCCCC)cc1OC	-10%	-7%
O=C(COC(=O)CCc1ccc(S(=O)(=O)N2CCOCC2)cc1)Nc1cccc(Cl)c1	-4%	-9%
O=C(COc1ccccc1Cl)Nc1ccc(C(=O)c2ccc(C(=O)O)cc2)cc1	i	-5%
CCOC(=O)c1c(C)c(-c2ccccc2)n(CC(=O)Nc2cc(C)ccc2OC)c1C	-10%	-11%
COc1ccc(N(CC(=O)NC2CCS(=O)(=O)C2)S(=O)(=O)c2ccc(Cl)c(Cl)c2)cc1 (configuration not stated)	-15%	5%
CCn1cnc2cc(NCc3ccc(N(C)C)cc3)ccc21	?	-11%
O=C(Cc1ccccc1Cl)Nc1cccc(S(=O)(=O)N2CCOCC2)c1	-14%	-3%
COc1ccc(CNC(=O)C2CCCN(C(=O)N3CCOc4ccccc43)C2)cc1 (configuration not stated)	-8%	-13%
Cc1ccc(C(=O)Nc2cccc([N+](=O)[O-])c2)cc1S(=O)(=O)Nc1ccc(C(=O)O)cc1	-11%	0%
Cc1ccc(NC(=O)CSCc2nc3c(nnn3Cc3ccc(F)cc3)c(=O)[nH]2)c(C)c1	i	-17%

Ordered by number of heavy atoms (rising): part of the list above.
structure	Vaccinia mCherry	Vaccinia Venus
O=[N+]([O-])c1ccccc1CN1CCN(Cc2ccccn2)CC1	-7%	3%
O=C(CCS(=O)(=O)c1cccc2nonc12)NCc1ccc(Cl)cc1	-7%	-10%
COc1cccc(/C=N/NC(=O)CSc2nnc(C)n2-c2ccccc2)c1O	?	?
COc1ccc(CNC(=O)C2CCCN(C(=O)N3CCOc4ccccc43)C2)cc1 (configuration not stated)	-8%	-13%
CCOC(=O)c1c(C)c(-c2ccccc2)n(CC(=O)Nc2cc(C)ccc2OC)c1C	-10%	-11%

The listing continues:
structure	Vaccinia mCherry	Vaccinia Venus
CN(C)C(=O)CSc1nc2cc(S(=O)(=O)N3CCOCC3)ccc2o1	?	?
COc1ccc(C2CC(c3cccc(OC)c3)=NN2c2ccc(S(N)(=O)=O)cc2)cc1 (configuration not stated)	i	-18%
O=C(Nc1cccnc1)c1c(F)cccc1F	i	-12%
COc1ccc(-n2c(=O)c3ccccc3n(Cc3cccc(C)c3)c2=O)cc1OC	?	?
O=C(c1cc(COc2ccc(F)cc2F)on1)N1CCN(C2CCCC2)C(=O)C1	-15%	-19%
C=CCN1C(=O)c2ccc(C(=O)N3CCN(S(=O)(=O)c4ccc(C(C)C)cc4)CC3)cc2C1=O	-3%	-8%
C/C(CC(=O)Nc1cccc(Cl)c1Cl)=N\NC(=O)C(=O)N1CCCC1	-23%	-1%
CCOC(=O)[C@]12CCCC=C1N(Cc1cccc3ccccc13)C(=O)[C@H](CC(=O)N1CCCC1)C2	-7%	-8%
O=C(O)CC(NCc1ccco1)C(=O)OCC1CCCO1 (configuration not stated)	-8%	-3%
COc1ccc(C(NC(N)=O)c2ccccc2)cc1 (configuration not stated)	-15%	-6%
Cc1cccc(N2C(=O)CN(Cc3ccccc3)C2=S)c1	-26%	-5%
CCOP(=O)(CCP(=O)(OCC)OCC)OCC.C[CH2][Sn]([Cl])([Cl])[CH2]C	-6%	-23%
CC(C)C[C@H](NC(=O)N1CCn2c1nc1ccccc12)C(=O)N[C@@H](C(=O)O)c1ccccc1	-6%	9%
Cc1cc(S(=O)(=O)Nc2cccc(C(=O)O)c2)c(C)c(S(=O)(=O)c2ccc(Cl)cc2)c1	i	-3%
CCCCN1C(=O)C(=O)NC[C@@H]1Cc1ccc(O)cc1	-5%	-10%
Cc1cc(OCC(=O)NCc2cccnc2)ccc1[N+](=O)[O-]	i	-3%
C/C=C\C(=O)Nc1cccc(C2=NOC3(C2)C[C@H](C(N)=O)N(C(=O)/C=C/CC)C3)c1 (some centres not stated)	-17%	-8%
Cc1c(C(c2ccccc2O)c2c(C)n(C)n(-c3ccccc3)c2=O)c(=O)n(-c2ccccc2)n1C	i	-12%
O=C(CN(Cc1ccc(Cl)cc1)S(=O)(=O)c1ccccc1)NCC1CCCO1 (configuration not stated)	-6%	-14%
CCC(=O)N1CCc2cc(S(=O)(=O)NC(C(=O)Nc3cc(OC)cc(OC)c3)C(C)C)ccc21 (configuration not stated)	-11%	0%

Looked up by structure from the list above:
structure	Vaccinia mCherry	Vaccinia Venus
O=C(CN(Cc1ccc(Cl)cc1)S(=O)(=O)c1ccccc1)NCC1CCCO1 (configuration not stated)	-6%	-14%
C/C(CC(=O)Nc1cccc(Cl)c1Cl)=N\NC(=O)C(=O)N1CCCC1	-23%	-1%

Further results follow.
structure	Vaccinia mCherry	Vaccinia Venus
Cc1cc(C(=O)OCC(=O)Nc2cccc([N+](=O)[O-])c2)c(C)o1	-18%	-16%
O=C(Nc1ccc2nn(-c3ccc(F)cc3)nc2c1)c1cccc2c(Cl)cccc12	-27%	-26%
CC[C@]12C(=O)N(C)C[C@H]([C@@H]3C(=O)N(C)C(=O)[C@@H]31)N2C(=O)c1ccc(F)cc1	i	1%
S=C(Nc1ccc(Cl)cc1)N1CCCCC1	-16%	-12%
O=C1CCCCN1CC(=O)N1CCCC(Nc2ccc(F)c(F)c2)C1 (configuration not stated)	-6%[7.34 µM]	5%[7.34 µM]
COc1ccc(NC(=O)C(CCCCNC(=O)OC(C)(C)C)NC(=O)OCc2ccccc2)cc1 (configuration not stated)	-7%	-11%
CC(=O)Nc1cccc(-c2ccnc3c2CC(C(=O)NCC2CCOCC2)O3)c1 (configuration not stated)	1%	-2%
Cc1nn(C(C)C(=O)N2CCN(c3ccc(Cl)cc3)CC2)c(=O)c2cc3occc3n12 (configuration not stated)	-27%	-23%
CCOc1cc(/C=C2\COc3ccccc3C2=O)cc(Br)c1OCC(=O)N(C)C	?	?
COc1ccc(C(=O)N/C(=C\c2ccccc2)C(=O)NCCCn2ccnc2)cc1	0%	-10%
COC(=O)c1nnn(-c2nonc2N)c1CSc1nnc(C)s1	i	-5%
COc1cc(/C=C2\C(=O)NC(=O)N(c3ccccc3)C2=O)c([N+](=O)[O-])cc1OC	i	-15%
Cc1cccc(OCCSc2nc(-c3cccs3)nc3cc(=O)[nH]n23)c1	0%	1%
CCn1cc(CN2CCN(Cc3ccc(C)o3)C(CCO)C2)c2ccccc21 (configuration not stated)	-5%	-1%
CC(=O)C[C@H](O)CC(=O)[C@H]1OC(=O)[C@H](C)C/C=C\Cc2ccccc21	i	-18%
CCn1nccc1C(=O)Nc1cc(Cl)cc(Cl)c1	-19%	-19%
Cc1cccn2c(=O)c3cc(C#N)c(=NC(=O)c4cccnc4)n(CC4CCCO4)c3nc12 (configuration not stated)	-5%	-3%
Cc1cc(C)cc(OC(C)C(=O)Nc2ccc(S(=O)(=O)Nc3cc(C)nc(C)n3)cc2)c1 (configuration not stated)	-2%	-10%
O=C(c1cccc(NS(=O)(=O)c2ccc(F)cc2)c1)N1CCN(c2ccccc2)CC1	i	-11%
O=C1CC(c2ccc(F)cc2)CC2=C1C(c1ccc([N+](=O)[O-])o1)Nc1ccccc1N2 (configuration not stated)	?	-8%
O=[N+]([O-])c1ccc(CN2CCN(c3ccc4ccccc4n3)CC2)cc1	-23%	-23%
CNc1cc(-c2ccc(O)cc2C)ncn1	44%[activator]	-5%
CC(COc1ccccc1)N(CCCl)Cc1ccccc1 (configuration not stated)	-2%	?
Cc1ccnn1CCC(=O)O	-11%	-4%
O=C(CC(=O)N/N=C/c1cccs1)NCc1ccccc1	-8%	-9%
CCCCCN1CN(S(=O)(=O)c2cccs2)c2nc3ccccc3nc21	-7%	4%
CCN(CC)N=Nc1ccc(S(=O)(=O)N2CCSC2C(=O)O)cc1 (configuration not stated)	-8%	-2%
Cc1nc(N2CCN(C(=O)CCC(=O)O)CC2)c2c(C)c(C)sc2n1	i	-12%
CCOc1ccccc1NC(=O)c1sc(-n2nc(C)c(CCC(C)C)c2C)nc1C	7%	-3%
NNC(=O)/C(=C/c1cccs1)NC(=O)c1ccccc1Cl	-29%	-7%
O=C(NN=C1CCCCCC1)c1cc(-c2ccccc2)nc2ccccc12	-23%	-23%
CCc1nnc(NC(=O)CSc2nnc(COc3ccccc3)n2-c2ccc(C)cc2)s1	-23%	-17%
CC(=O)Nc1ccc2c(c1)CC1(C(=O)N(C)C(=O)N(C)C1=O)C1CCCN21 (configuration not stated)	i	-20%
CC[C@@]1(O)C(=O)OCc2c1cc1n(c2=O)Cc2cc3c(NC(=O)CN)cccc3nc2-1	?	?
O=C1CCCN1CCC(=O)N1CCCC(Nc2ccc(F)cc2)C1 (configuration not stated)	i	-14%
CN(C)c1ccc(C(O)c2cc3ccccc3s2)cc1 (configuration not stated)	?	-25%
COc1ccccc1-c1cnc(C(O)c2c(C)cc(C)cc2C)[nH]1 (configuration not stated)	i	-7%
CCOc1ccc(OCCC(=O)N2CCN(S(=O)(=O)c3cccc(F)c3)CC2)cc1	i	-10%
Cc1cc(=O)oc2cc(OCC(=O)NC(Cc3c[nH]c4ccc(O)cc34)C(=O)O)c(Cl)cc12 (configuration not stated)	-3%	-3%
Cc1ccc(S(=O)(=O)N2CCN(C(=O)CSc3ncc(C(F)(F)F)cc3Cl)CC2)cc1	.	?
CCSc1ncc(Cl)c(C(=O)Nc2ccc(S(=O)(=O)N3CCC(C)CC3)cc2)n1	?	-20%
COc1cc(OC)c2cc(C(=O)N[C@H](C(=O)N3CCC[C@H]3C(=O)O)C(C)C)n(C)c2c1	-5%	-1%
CC(C)C[C@H](NC(=O)[C@H](CCC(N)=O)NC(=O)[C@H](CCCCN)NC(=O)[C@H](CCC(N)=O)NC(=O)[C@@H](N)CCC(=O)O)C(=O)N[C@@H](CCC(N)=O)C(=O)O	-17%[3.33 µM]	-7%[3.33 µM]
Cc1ccc(C)c(NC(=O)CSc2nc3nccnc3c(=O)n2CCc2c[nH]c3ccccc23)c1	-12%	-9%
CC12CCC3C(CCC4CC(=O)C(C(O)C(F)(F)F)CC43C)C1CCC2O (configuration not stated)	-25%	-6%
CCOc1ccccc1CNS(=O)(=O)c1ccc(-c2cnc(C3CC3)o2)cc1	?	?
CC1CN(c2ccc(NC(=S)NNCCC#N)cc2)CC(C)O1 (configuration not stated)	-17%[7.34 µM]	-7%[7.34 µM]
COc1cc(OC)c2c(C)cc(=O)oc2c1C(CCN1CCOCC1)c1ccc2c(c1)OCO2 (configuration not stated)	-21%	-24%
CC(=O)c1ccc(NC(=S)NN2C(C)CCCC2C)cc1 (configuration not stated)	-5%	-12%
CCN(CC)S(=O)(=O)c1ccc(OC)c(NC(=O)C2CC(=O)N(c3ccc4c(c3)OCCO4)C2)c1 (configuration not stated)	i	-11%
CCC(Oc1ccccc1)C(=O)Nc1nnc(S(=O)(=O)N2CCCC2)s1 (configuration not stated)	-13%	-6%&-4%
C/C(=N\NC(=O)c1ccc(Cl)cc1)c1cccnc1	i	-9%
O=C(NCc1ccco1)c1ccc(Cn2c(=S)[nH]c3ccccc3c2=O)cc1	-18%	-5%
COC(=O)c1cc(NS(=O)(=O)c2ccc(Cl)c(N3C(=O)c4ccc(C(=O)O)cc4C3=O)c2)cc(C(=O)OC)c1	19%	-5%
O=C(/C=C\Nc1ccc(Br)cc1)c1cccnc1	-1%	-9%
Cc1ccc(S(=O)(=O)NCCC(=O)NC2CCN(Cc3ccccc3)CC2)cc1	i	-11%
CC(C)c1ccc(NC(=O)c2cc(-c3cc(F)ccc3OCC3CCCO3)n[nH]2)cc1 (configuration not stated)	?	-16%
NS(=O)(=O)c1cccc(C(=O)NC2CCSc3ccccc32)c1 (configuration not stated)	1%	-2%
COc1ccccc1Cc1c(-c2ccc(OC)c(OC)c2)nc2cc(C)c(Br)c(C)n12	12%	4%
CCCCOc1ccc(Cn2c(=O)sc3ccccc32)cc1	-10%	-4%
COc1ccc(OC)c(CNC(=O)CCS(=O)(=O)c2ccc3c(c2)oc(=O)n3C)c1	-20%&-13%	-8%&-10%
COc1ccccc1N1CCN(C(=O)/C=C/c2ccc(C)cc2)CC1	-13%	-21%
CC(C)(C)C(=O)/C=C1\NC(=O)CS1	i	11%

Source: PubChem BioAssay (National Center for Advancing Translational Sciences (NCATS))
